AID923 – qHTS Assay for Allosteric/Competitive Inhibitors of Caspase-1: Spectroscopic Profiling in AFC Spectral Region; AID 923, 2007; actives 1.1% (n = 75,000); compound fluorescence, AFC spectral region (405/520 nm); almost no hit is shown here; Potency, µM (highest dose often 57.5 µM), inactives show at the top dose fluorescence increase, usual class: activators; active means well fitted activation curve with a large enough effect; inconclusive means small, poorly fitted or top-dose-only effect;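 further: potency means the concentration at half of the fitted maximal effect; 0% is about no effect; scaled to a free AFC standard on each plate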
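Compound autofluorescence profiled at 405 nm ex/520 nm em during kinetic caspase 1 run (50 nM enzyme, 5 uM Ac-WEHD-AFC, HEPES pH 7.5, 10 mM DTT). Titration up to 57 uM; baseline from regression intercept, normalized to AFC standard curve.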
A647 fluor – compound autofluorescence in A647 spectral region; Compound fluorescence, A647 channel (570/671 nm), Tris buffer; max dye-equivalent concentration, M; 59,000 tested, under 10 active; active means above 1 µM dye equivalent; inconclusive means 0.1 to 1 µM; inactive means 0.1 µM or less;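 further: values scaled relative to a standard on each plate; highest value over a series up to 38 µM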
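Fluorescence read (570 nm ex, 671 nm em) after 15 min RT incubation of compounds in 100 mM Tris buffer, pH 8.0; values expressed as dye-equivalent concentration against a six-point A647 standard series on each plate.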
A488 autofl – compound autofluorescence in A488 spectral region. max dye equivalency, M. AID 591. actives 0.1% (n = 59,000). compound autofluorescence, A488 spectral region, dye equivalency; active compounds read high; active = above 10 nM dye equivalent; inconclusive = 1 to 10 nM; inactive = 1 nM or less; about half of its hits are not listed in these tables;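 further: highest value over a series up to 38 µM; compound alone in buffer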
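Spectroscopic profiling in the A488 region: compounds in pH 8.0 Tris (100 mM), 15 min RT, CCD imaging with 480 nm excitation and 540 nm emission; responses normalized against A488 dye standards.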
Resorufin fluor – compound fluoresces in the resorufin spectral region | Compound fluorescence, resorufin region 547/598 nm, buffer; active compounds read high | max dye-equivalent concentration, M | actives 0.04% (n = 59,000); active = above 10 nM dye equivalent; inconclusive = 1 to 10 nM; inactive = 1 nM or less; a few of its hits are not listed in these tables; further: highest value over a series up to 38 µM
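Compounds in 100 mM Tris, pH 8.0, incubated 15 min at room temperature, then fluorescence read at 547 nm excitation/598 nm emission. Signal converted to dye-equivalent concentration via an on-plate six-point resorufin standard curve, per compound concentration.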
TSHR agonist – activates the human thyroid stimulating hormone receptor | actives 0.48% (n = 73,000) | HEK293-CNG-TSHR cells (CNG channel as cAMP sensor), membrane potential dye, cAMP | P16473 | AID 926 | Potency, µM (doses to about 57.1 µM), for the others: at the top dose activation, usual class: activators; active = well fitted activation curve of enough size with the parental cells flat; inconclusive = any curve in the parental cells; inactive = parental cells flat and receptor cells flat or falling; further: potency means the concentration at half of the fitted maximal effect; % of control where 0% means no effect; weak receptor curves with flat parental cells got no call and are not listed
Target sequence (P16473 whole entry, looked up): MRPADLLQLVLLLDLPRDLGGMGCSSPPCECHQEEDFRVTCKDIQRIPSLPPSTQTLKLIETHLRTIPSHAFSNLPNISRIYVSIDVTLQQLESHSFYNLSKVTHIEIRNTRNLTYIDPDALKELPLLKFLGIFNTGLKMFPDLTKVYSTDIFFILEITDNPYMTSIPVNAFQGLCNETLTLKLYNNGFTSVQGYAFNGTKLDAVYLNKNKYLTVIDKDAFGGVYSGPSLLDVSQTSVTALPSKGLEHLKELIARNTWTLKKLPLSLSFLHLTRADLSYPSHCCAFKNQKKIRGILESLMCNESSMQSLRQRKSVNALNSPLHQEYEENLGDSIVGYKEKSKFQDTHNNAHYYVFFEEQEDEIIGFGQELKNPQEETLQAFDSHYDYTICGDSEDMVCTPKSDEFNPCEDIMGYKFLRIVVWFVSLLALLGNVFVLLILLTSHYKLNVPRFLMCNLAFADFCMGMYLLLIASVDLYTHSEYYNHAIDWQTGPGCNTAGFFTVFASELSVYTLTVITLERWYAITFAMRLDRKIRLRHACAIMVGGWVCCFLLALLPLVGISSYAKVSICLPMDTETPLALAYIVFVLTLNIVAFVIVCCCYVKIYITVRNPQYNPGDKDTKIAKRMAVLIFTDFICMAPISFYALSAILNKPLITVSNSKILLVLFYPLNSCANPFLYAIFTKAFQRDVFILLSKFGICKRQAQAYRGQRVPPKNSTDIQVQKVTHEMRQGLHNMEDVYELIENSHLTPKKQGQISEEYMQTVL
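HEK 293 cells stably expressing TSHR and a modified CNG channel, with CNG-only parental cells as counterscreen, were preloaded 60 min at room temperature with membrane potential dye containing 100 uM RO 20-1724. Compound exposure was 30 min, and depolarization was read as fluorescence at 590 nm.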
An asterisk follows results filed as active; i = inactive; u = inconclusive; x = not tested or not shown; & = joins results of further samples; [ ] = another dose, or the depositor's remark.

SMILES	AID923	A647 fluor	A488 autofl	Resorufin fluor	TSHR agonist
CCOC(=O)C1CCN(C(=O)C2c3ccccc3C(=O)N(C)C2c2ccc(OC)cc2)CC1 (centres undefined)	1.2%	1e-09	i	i	4%
CC1Cc2ccccc2N1C(=O)COc1nc2ccccc2nc1N1CCOCC1 (centres undefined)	0.4%	1.6e-09	i	i	u
C/C(=N\O)C(=O)NCCN1CCCCC1	-0.4%	1.6e-08	i	i	-5%
COc1ccc2[nH]c(=O)c(CN(Cc3ccc4c(c3)OCO4)C(C)=O)cc2c1	-0.3%	3.6e-08	i	i	u
Cc1cccc(N(C)S(=O)(=O)c2ccc3[nH]cc(C(=O)N4CCOCC4)c(=O)c3c2)c1	-1.7%	8.8e-09	i	i	15%
CN(C(=O)Cn1c(=O)n(CCCCC(=O)NC2CCCC2)c(=O)c2ccccc21)C1CCCCC1	-1.2%	1.6e-09	i	i	9%[11.4 µM]
Cc1cc(C)n2cc(CSc3nnnn3-c3ccc(Cl)cc3)nc2n1	-2.2%	1e-09	i	i	-4%
CC(=O)CSc1nnc(CSc2ncccn2)n1C1CCCCC1	0.4%	2.2e-08	i	i	4%
CC(=O)NCCN=C(C)c1sc2ccccc2c1O	4.2%	3.7e-08	i	i	x
CCOC(=O)C1CCN(Cc2ccc(C(=O)OC)cc2)CC1	-2.1%	5.3e-09	i	i	3%
COc1ccc(-c2c(C)n([O-])c(C)c(C)[n+]2=O)cc1OC	-0.8%	3.5e-08	i	i	1%
O=C(Nc1nnc(C(F)(F)F)s1)c1cccnc1	-1.9%	1.1e-08	i	i	-2%

Full records as entered above. Order of values: AID923	A647 fluor	A488 autofl	Resorufin fluor	TSHR agonist
`Cc1cccc(N(C)S(=O)(=O)c2ccc3[nH]cc(C(=O)N4CCOCC4)c(=O)c3c2)c1` is listed with -1.7%	8.8e-09	i	i	15%
`Cc1cc(C)n2cc(CSc3nnnn3-c3ccc(Cl)cc3)nc2n1` is listed with -2.2%	1e-09	i	i	-4%
`CCOC(=O)C1CCN(C(=O)C2c3ccccc3C(=O)N(C)C2c2ccc(OC)cc2)CC1` (centres undefined) is listed with 1.2%	1e-09	i	i	4%

Further compounds:
SMILES	AID923	A647 fluor	A488 autofl	Resorufin fluor	TSHR agonist
CC(Oc1ccc(Cl)cc1Cl)C(=O)Nc1ccc2oc(-c3ccncc3)nc2c1 (centres undefined)	0.0%	9.3e-09	i	i	u
N#C/C(=C1\CCCN1)c1nc2ccccc2c(=O)[nH]1	-0.2%	1e-09	i	i	8%
O=C(CC1N=C2c3ccccc3N=C(SCc3ccc(Cl)cc3)N2C1=O)NCc1ccco1 (centres undefined)	5.1%	2.5e-08	i	i	u
CN1CCN(S(=O)(=O)c2ccc(-c3noc(C4CCN(S(C)(=O)=O)CC4)n3)cc2)CC1	-0.1%	2e-08	i	i	u
C=C(C)CSc1nnc(-c2cccc(S(=O)(=O)N(C)C)c2)n1-c1cc(OC)ccc1OC	0.1%	4.6e-09	i	i	u
O=C(O)CCN(CCC(=O)O)c1ccccc1	-0.8%	1e-09	i	i	-7%
Cc1ccc(C(=O)N2CCN(S(C)(=O)=O)C2)cc1	-0.4%	3.7e-08	i	i	-1%
C=CCn1c(-c2ccc(Cl)cc2)c[nH]c1=S	0.6%	7.4e-09	i	i	0%
NCCCCCC(=O)O	-0.1%	4.6e-08&3e-09	i	i	6%[25.6 µM]
Nc1nc(NCc2ccco2)nn1-c1ccccc1	1.3%	5.8e-09	i	i	-2%
CCOC(=O)C1CCN(c2nc3ccccc3nc2C(C#N)C(=O)OCCOC)CC1 (centres undefined)	x	1.2e-08	i	i	x
CCOC(=O)CCCCNCc1ccccc1	0.9%	1e-09	i	i	3%
CCOc1cc(C)nc(N2CCCC(C(=O)NCc3ccccc3F)C2)n1 (centres undefined)	2.6%	1e-09	i	i	u
CCOC(=O)C(NC(C)=O)(Nc1cccc(F)c1)C(F)(F)F (centres undefined)	-1.6%	5.7e-09	i	i	-2%
Cn1cccc1Cc1nnc(SCC(=O)NCc2ccc3c(c2)OCO3)n1CCc1ccccc1	0.3%	1.7e-09	i	i	u
CCOC(=O)CSc1nnc(-c2nnc(SCC(=O)OCC)n2CC)n1CC	2.8%	4.6e-08	i	i	1%
Cc1cc(=O)oc2cc(OC3C=CC(C#CC(C)(C)C)OC3CO)ccc12 (centres undefined)	-2.5%[11.5 µM]	x	x	x	-5%[11.4 µM]
COCc1cc(C)c(C#N)c(=S)[nH]1	0.1%	2.6e-08	i	i	1%[11.4 µM]
O=C(Nc1ccc(N2CCOCC2)cc1)Nc1cnsn1	-0.7%	1.2e-08	i	i	-8%
COc1ccccc1C(=O)OCC(=O)Nc1ccc(OC(F)F)cc1	-1.8%	8.1e-09	i	i	5%
Cc1noc(C)c1-c1cc(NCc2ccccc2)ncn1	1.8%	6.8e-09	i	i	u
O=C(CSc1nnc(Cc2cccs2)n1-c1ccccc1)Nc1ccc2c(c1)OCCO2	2.3%	5.2e-09	i	i	29%
Cc1ccnc(SCCn2c(N3CCOCC3)nc3c2c(=O)[nH]c(=O)n3C)n1	0.1%	4.5e-08	i	i	16%
CCCS(=O)(=O)N1CCC(C(=O)NCCc2ccccc2)CC1	-2.2%	1.4e-08	i	i	1%
O=C(NCCN1CCN(c2ccccc2)CC1)C1CCN(S(=O)(=O)c2cccs2)CC1	-0.3%	5.8e-09	i	i	14%
CCOC(=O)c1c(C)[nH]c(C(=O)COC(=O)C2CC2C)c1C (centres undefined)	1.4%	1e-09	i	i	-1%
CCN(CC)S(=O)(=O)c1cccc(C(=O)NC(C(=O)Nc2nnc(C3CC3)s2)C(C)C)c1 (centres undefined)	-0.1%	1.7e-08	i	i	5%
COc1cc(NC(=O)Cn2ncc3c2-c2ccccc2OC3)cc(OC)c1OC	0.0%	x	x	x	-1%
O=C(Cn1cnc2c(nnn2-c2ccc(F)cc2)c1=O)N1CCCC1	0.3%	3.4e-09	i	i	-1%
COc1ccc(C2CC(c3ccccc3)n3nc(NC(=O)c4cccs4)nc3N2)cc1 (centres undefined)	2.1%	1e-09	i	i	15%
CCOC(=O)C1CCN(C(=O)Nc2ccc(NC(=O)C3CCN(C(=O)OCC)CC3)cc2)CC1	-2.5%	6.5e-09	i	i	2%
O=C(Nc1ccn(C2CC(OC(=O)c3ccccc3)C(CO)O2)c(=O)n1)c1ccccc1 (centres undefined)	1.6%	1e-09	i	i	4%
N#CC1=C(N)N(c2ccccc2C#N)C2=C(C(=O)CCC2)C1c1ccsc1 (centres undefined)	-0.8%	1.5e-09	i	i	3%[11.4 µM]
COC(=O)c1[nH]cnc1C(=O)c1ccccc1	2.3%	1.1e-08	i	i	20%
N[C@@H](C(=O)O)c1cc(O)ccc1Cl	-5.1%	x	x	x	4%
CCN(CC)CCNC(=O)c1cc(Br)c(N)cc1OC	0.0%	3.2e-09	i	i	-6%[25.6 µM]
O=S(=O)(c1cccs1)N1CCN(c2ncccn2)CC1	0.0%	5.1e-09	i	i	15%
Cc1ccc(-n2c(C)cc(C(=O)CSc3nnnn3C)c2C)cc1	1.4%	1.2e-09	i	i	u
O=c1c(-c2ccc3c(c2)OCCO3)coc2c(CN3CCOCC3)c(O)ccc12	-0.6%	2.7e-08	i	i	-11%
CCCCC(=O)c1c(O)c2ccccc2oc1=O	0.4%	2.9e-09	i	i	9%
Nc1ccc2[nH]ncc2c1	x	7.4e-09	i	i	x
O=C(O)c1ccc(NCc2ccc3c(c2)OCO3)cc1	-0.8%	1e-09	i	i	0%[11.4 µM]
COc1ccc(OC)c(C2C(C#N)=C(N)Oc3c2c(C)nn3-c2ccc(C)cc2)c1 (centres undefined)	1.8%	3.1e-08	i	i	x
CCn1ncc(C2=NOC(C(=O)NCc3ccccc3)C2)c1C (centres undefined)	-1.2%	x	x	x	5%
O=C(Nc1ccccc1C(=O)OCn1nnc2ccccc2c1=O)c1ccco1	2.4%	8e-09	i	i	28%
CCOC(=O)N1CCN(C2=NC3(CCCCC3)C(C#N)C(=O)N2)CC1 (centres undefined)	1.2%	2.4e-08	i	i	2%
Cc1ccc(CNC(=O)COC(=O)c2c(C)noc2C)cc1	1.1%	1e-09	i	i	8%
Clc1ccccc1OCCN1CCCCC1	3.4%	x	x	x	u
Cc1ccc(-n2nnnc2SCC(=O)NCCC2=CCCCC2)c(C)c1	0.4%	3.3e-08	i	i	u
Cn1c(SCC(=O)NC2CCCC2)nc2cccnc21	-0.7%	3.5e-08	i	i	4%
Cc1ccc2[nH]c(=O)c(C(c3nnnn3CC3CCCO3)N3CCCc4ccccc43)cc2c1 (centres undefined)	4.7%	2.1e-08	i	i	-8%
CS(=O)(=O)N(CC(=O)NCc1ccccn1)c1ccc2c(c1)OCCO2	-3.2%	2.9e-08	i	i	4%
O=C1[C@H]2[C@H]3[C@H](O)[C@H](O)C/C(=N/OC[C@@H](O)COCc4ccco4)[C@@H]3CC[C@@H]2C(=O)N1Cc1ccc2c(c1)OCO2	-1.9%[11.5 µM]	x	x	x	-3%[11.4 µM]
CCN1CCN(C(c2cc3cccc(C)c3[nH]c2=O)c2nnnn2Cc2ccccc2)CC1 (centres undefined)	2.8%	5.4e-09	i	i	7%
O=C(CCCn1c(=S)[nH]c2ccsc2c1=O)NCc1ccco1	-0.8%	2.8e-08	i	i	u
COc1cccc(-c2nn(C)c3sc(C(=O)NCc4ccco4)cc23)c1	0.0%	1e-09	i	i	21%
O=C(NCCc1ccccc1)C1CCCN1C(=O)Nc1ccc(F)cc1 (centres undefined)	0.8%	1e-09	i	i	4%
COC(=O)c1ccc(-n2nnnc2SCC(=O)Nc2cc(OC)ccc2OC)cc1	0.0%	1e-09	i	i	u
O=C(Cc1cccs1)Nc1ccon1	3.1%	1e-09	i	i	-6%
CCCCNC(=O)c1c(C)cc(=O)oc1C	0.4%	2.7e-08	i	i	2%

Quoted at random: 3 entries already listed
SMILES	AID923	A647 fluor	A488 autofl	Resorufin fluor	TSHR agonist
COc1ccc(C2CC(c3ccccc3)n3nc(NC(=O)c4cccs4)nc3N2)cc1 (centres undefined)	2.1%	1e-09	i	i	15%
CCCS(=O)(=O)N1CCC(C(=O)NCCc2ccccc2)CC1	-2.2%	1.4e-08	i	i	1%
CCOc1cc(C)nc(N2CCCC(C(=O)NCc3ccccc3F)C2)n1 (centres undefined)	2.6%	1e-09	i	i	u

Further structures follow.
SMILES	AID923	A647 fluor	A488 autofl	Resorufin fluor	TSHR agonist
O=S(=O)(c1ccc(S(=O)(=O)N2CCCN(Cc3ccccc3)C2)cc1)N1CCCCCC1	0.6%	1.2e-08	i	i	x
O=C(Nc1ccc(Br)cc1F)c1sccc1-n1cccc1	0.7%	4.8e-08	i	i	u
Cc1ccc(Cn2ncc3c(N4CCN(Cc5ccc(Cl)cc5)CC4)ncnc32)cc1	x	2.4e-08	i	i	x
COc1ccc(Br)cc1-c1nc(C)c(C(C)=O)n1O	0.5%	2.5e-09	i	i	2%
O=S(=O)(c1cccc2cccnc12)N1CCOCC1	-1.7%	2.7e-09	i	i	-3%
O=C(Nc1ccc(N2CCOCC2)cc1)Nc1ccc2nc(-c3ccco3)c(-c3ccco3)nc2c1	7.3%	1.9e-08	i	i	-51%[inhibitor]
CCn1nccc1C(=O)NC1=C(C#N)CCC1	-1.3%	3.6e-09	i	i	3%
CCOc1ccc(C(=O)N2CCN(C(=O)c3ccco3)CC2)cc1OCC	-0.5%	5.3e-09	i	i	-7%
O=C1CCCc2c1[nH]c1ccc(Br)cc21	0.0%	3.4e-09	i	i	12%
Cc1cccc2c(=O)oc(-c3ccc4c(c3)C(=O)N(CC3CCCO3)C4=O)nc12 (centres undefined)	-1.3%	4.6e-09	i	i	3%
COCCOCC(O)CN1CCN(c2ccccc2)CC1 (centres undefined)	0.2%	2.1e-09	i	i	2%
COc1ccc(-c2ccc(-c3noc(-c4ccccc4C)n3)c(OC)n2)cc1	8.5%	1e-09	i	i	7%

High-throughput results from PubChem.

Some of the compounds tested. The share of hits here may be higher or lower than overall.
